Assay outcomes as filed in PubChem.
KCNQ2 pot: potentiators of rat KCNQ2 potassium channel | O88943 | CHO-K1 KCNQ2, FluxOR thallium flux fluorescence; hits give high values | B-score at 10 µM | 310,000 compounds, 0.54% hits;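 active means fluorescence ratio B-score at least 3 SD of library B-scores, with initial fluorescence B-score within 3 SD, cut at about 5.3 in these data; same plate scores as AID 2156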;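 further: B-score of peak minus minimum over baseline fluorescence ratio after K+ and Tl+ stimulus; positive B-score means potentiation of KCNQ2 with more thallium influx and brighter signal; only the inactives scoring about 0 or higher are listed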
Target sequence (O88943 whole entry, looked up): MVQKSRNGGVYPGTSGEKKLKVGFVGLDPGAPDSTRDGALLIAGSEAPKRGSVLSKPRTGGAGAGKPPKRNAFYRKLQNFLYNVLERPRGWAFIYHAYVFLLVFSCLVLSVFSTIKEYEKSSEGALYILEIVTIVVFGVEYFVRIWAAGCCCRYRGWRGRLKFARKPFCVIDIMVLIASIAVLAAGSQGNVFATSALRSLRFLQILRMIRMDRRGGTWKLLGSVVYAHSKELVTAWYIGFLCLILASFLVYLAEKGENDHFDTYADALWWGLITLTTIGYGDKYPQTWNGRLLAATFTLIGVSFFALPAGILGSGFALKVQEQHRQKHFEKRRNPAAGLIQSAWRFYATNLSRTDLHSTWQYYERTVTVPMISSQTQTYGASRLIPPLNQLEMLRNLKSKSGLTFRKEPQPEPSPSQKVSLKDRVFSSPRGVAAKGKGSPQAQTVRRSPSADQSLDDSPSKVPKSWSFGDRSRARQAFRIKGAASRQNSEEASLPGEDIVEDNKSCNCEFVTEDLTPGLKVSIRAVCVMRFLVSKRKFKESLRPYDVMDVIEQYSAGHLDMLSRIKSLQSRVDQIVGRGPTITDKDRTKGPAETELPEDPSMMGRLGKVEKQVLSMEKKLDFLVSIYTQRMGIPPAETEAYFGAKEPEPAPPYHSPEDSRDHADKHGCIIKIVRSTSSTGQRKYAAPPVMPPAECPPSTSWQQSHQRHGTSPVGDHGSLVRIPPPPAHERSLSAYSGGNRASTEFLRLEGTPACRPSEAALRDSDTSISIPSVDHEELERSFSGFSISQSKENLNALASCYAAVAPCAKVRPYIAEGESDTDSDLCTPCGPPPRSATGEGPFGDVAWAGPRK
KCNQ2 pot baseline: also measured in KCNQ2 pot; calls as there; B-score; compound at 10 µM; measured here: initial fluorescence intensity artifact check;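 brightness before thallium and not channel activity; 0 = typical well and far values either way flag optical interference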
Active calls of the source: *. These rows are one share of the data; count on the stated rates, not on these rows.

Start of the listing, in advance:
SMILES | KCNQ2 pot | KCNQ2 pot baseline
CC(=O)Nc1nnc(SCC(=O)NC2CC2)s1 | 0.88 | 0.48
CC1Sc2ccc(S(=O)(=O)CCC(=O)N3CCCC3)cc2NC1=O (stereo unspecified) | 0.23 | 1.1
CCNC(=S)NCc1ccc(OC)c(OC)c1 | 0.99 | 2.5
COc1ccc2c(=O)c(C(=O)O)c(-c3ccc4c(c3)OCO4)n(C)c2c1 | 0.21 | -0.02
Cc1csc(NC(=O)c2ccc(C)c([N+](=O)[O-])c2)n1 | 4.3 | -0.23
COc1cc(NC(=O)COC(=O)/C=C/c2c(C)nn(C3CCS(=O)(=O)C3)c2Cl)cc(OC)c1OC (stereo unspecified) | 0.39 | -1.2
Cc1nc2ccccc2c(=O)n1-c1ccc(F)c(NS(=O)(=O)c2ccccc2F)c1 | 2.3 | -0.15

Main list, repeating the preview:
SMILES | KCNQ2 pot | KCNQ2 pot baseline
CC(=O)Nc1nnc(SCC(=O)NC2CC2)s1 | 0.88 | 0.48
CC1Sc2ccc(S(=O)(=O)CCC(=O)N3CCCC3)cc2NC1=O (stereo unspecified) | 0.23 | 1.1
CCNC(=S)NCc1ccc(OC)c(OC)c1 | 0.99 | 2.5
COc1ccc2c(=O)c(C(=O)O)c(-c3ccc4c(c3)OCO4)n(C)c2c1 | 0.21 | -0.02
Cc1csc(NC(=O)c2ccc(C)c([N+](=O)[O-])c2)n1 | 4.3 | -0.23
COc1cc(NC(=O)COC(=O)/C=C/c2c(C)nn(C3CCS(=O)(=O)C3)c2Cl)cc(OC)c1OC (stereo unspecified) | 0.39 | -1.2
Cc1nc2ccccc2c(=O)n1-c1ccc(F)c(NS(=O)(=O)c2ccccc2F)c1 | 2.3 | -0.15
CC(CC(=O)Nc1ccc(C(N)=O)cc1)c1ccccc1 (stereo unspecified) | 0.04 | 0.09
Cc1ccc(Cl)cc1NC(=S)N/N=C/c1cccc2ccccc12 | 2.1 | 0.52
C#CCNc1nc(C(C)C)nc2c1nnn2Cc1ccccc1F | 2.2 | 4
COc1ccc(C2(C)NC(=O)N(CC(=O)NC3(C#N)CCCCC3)C2=O)cc1 (stereo unspecified) | 1.1 | 1.1
O=C(CCc1nc2sc3c(c2c(=O)[nH]1)CCCC3)N1CCN(c2ccccc2)CC1 | 0.03 | 0.78
COc1ccc(OCCCC(=O)OC(C)C(=O)Nc2cccc(C(C)=O)c2)cc1 (stereo unspecified) | 1.1 | -2.4
Cc1cc(NC(=O)CSc2n[nH]c(=O)[nH]c2=O)ccc1Br | 0.03 | -0.05
CCCOc1ccc(/C=N/O)cc1 | 0.4 | 1.2
O=C(Nc1cc(S(=O)(=O)N2CCCCC2)ccc1N1CCCCC1)c1ccncc1 | 0.18 | -2.6
CCOC(=O)CSc1nc2cc(C)cc(C)c2cc1C#N | 1.3 | 0.95
O=C(O)COc1ccc(/C=C2\SC(=Nc3ccccc3)N(c3ccccc3)C2=O)cc1 | 0.4 | -0.04
N/C(Cc1ccc(Cl)cc1)=N\OC(=O)C1CCCCC1 | 1.1 | 0.51
O=C(c1cc(S(=O)(=O)N2CCOCC2)c(Cl)cc1Cl)N1CCCCC1CO (stereo unspecified) | 0.04 | 0.05
CC(C)CCNC(=O)C(c1ccncc1)N(Cc1cccs1)C(=O)Cn1nnc(-c2ccc(F)cc2)n1 (stereo unspecified) | 0.05 | 0.32
Cc1cc(C2(O)C(=O)Nc3ccccc32)ccc1F (stereo unspecified) | 0.36 | -0.47
CCn1c(O)c(N=NC(=O)c2cccs2)c2ccccc21 | 1.3 | -1.1
COCCOc1ccc(C(F)(F)F)cc1NC(=O)COC(=O)c1cc([N+](=O)[O-])ccc1N1CCOCC1 | 0.14 | 0.81
Cc1cc(NC(=O)Nc2cccc(Cl)c2)n(-c2ccccc2)n1 | 1.1 | 0.04
Cc1cc[n+]2c3c(cccc13)CCC2 | 0.11 | 0.52
CC(=O)c1ccc(OC(=O)c2ccc(-n3nc(C)cc3C)cc2)cc1 | 0.01 | -0.61
O=C(c1ccco1)N1CCN(c2nc3ccccc3n3nnnc23)CC1 | 0.12 | -0.5
Nc1nc2n(n1)C(c1cccs1)CC(c1ccc(F)cc1)N2 (stereo unspecified) | 0.32 | -0.05
CCN(CC(=O)Nc1cc(Cl)ccc1C)C(=O)Cn1c(=O)cnc2ccccc21 | 0.83 | -0.21
C[n+]1c2n(c3ccccc31)N=C(c1ccc(Cl)cc1)CS2 | 0.52 | 0.5
O=C(O)c1sc2ncccc2c1OCc1ccccc1 | 0.86 | -0.8
Cc1cc(C)cc(-n2ccn(CC(=O)NCCc3ccccc3)c(=O)c2=O)c1 | 0.37 | -1.3
O=C(O)c1ccc(NC(CSCc2ccccc2F)C(=O)O)c([N+](=O)[O-])c1 (stereo unspecified) | 1.9 | 1.1
CN(CC(=O)Nc1ccccc1Br)C(=O)c1cc(S(=O)(=O)N(C)C)ccc1N1CCCC1 | 1.7 | -0.28
CCC(C)c1ccccc1OCC(=O)NN1C(=O)c2ccccc2C1=O (stereo unspecified) | 2.3 | -0.45
C=CCN(CC=C)Cc1c(O)ccc2c(=O)c(-c3ccccc3)coc12 | 1.1 | -1.6
Cc1c(C(C)NC(=O)c2ccc3nc(Cc4ccccc4F)oc3c2)cnn1C (stereo unspecified) | 0.05 | -2
Cc1ccc(/C=N/NC(=O)c2c(C)nc3ccc(Br)cn23)cc1 | 1.4 | -1.2
COc1ccc(C(=O)NCC(=O)N/N=C(\C)c2ccco2)cc1OC | 0.36 | -0.49
O=C(CN1CCN(S(=O)(=O)c2ccc(F)cc2)CC1)NC1CCCC1 | 2 | 0.11
COc1ccccc1-c1nnc(SCC(=O)O)n1-c1ccccc1 | 2.1 | -0.65
CCOC(=O)CSc1nc2c(c(-c3ccc(C)o3)c1C#N)CCCC2 | 7.2* | 0.52*
Cc1ccc(C)c(N2CCN(C(=O)CCC(=O)Nc3nnc(C(F)(F)F)s3)CC2)c1 | 1.5 | -0.19
COc1ccc(NC(=O)CCc2nnc3ccc(N4CCC5(CC4)OCCO5)nn23)cc1 | 0.01 | 0.31
CC(=O)Nc1c(Cl)cc([N+](=O)[O-])c2ccccc12 | 0.64 | 0.5
Cc1cc(C(=O)Nc2cccc(-c3ccc(N4CCOCC4)nn3)c2)ccc1[N+](=O)[O-] | 1.3 | 0.52
Cc1cc(C(=O)NNC(=S)NCC(C)C)no1 | 0.25 | -0.36
COc1ccccc1C(=O)NCCCCNC(=O)c1ccccc1OC | 2.5 | -0.82
CCC(=O)c1ccc(OCCN2CCOCC2)cc1 | 1.3 | 0.01
CC1CN(c2nc(N(C)c3ccccc3)nc(N)c2[N+](=O)[O-])CC(C)O1 (stereo unspecified) | 1.2 | -0.21
COc1ccc(NC(=O)O/N=C/c2ccncc2)cc1 | 1.4 | -0.98
O=C(CN1CCN(Cc2ccccc2)CC1)NC(=O)NC1CCCCC1 | 0.78 | 0.56
COCc1[nH][nH]c(=O)c1C=NCC(=O)OC | 1.5 | -2.7
CCOC(=O)c1sc(=S)n(C)c1C | 0.31 | -0.02
O=C(COC(=O)CCC1CCCC1)Nc1ccc(Cl)cc1F | 0.15 | -0.7
CCC(C)N1CC(O)=C(c2nc3ccccc3[nH]2)C1=N (stereo unspecified) | 0.1 | -0.29
O=C(C1CCN(S(=O)(=O)c2cnc[nH]2)CC1)N1CCc2ccccc2C1 | 0.59 | 0.25
CCOc1ccc(-c2noc(-c3cccnc3)n2)cc1OC | 0.46 | -0.3
Cc1cc(NC(=O)CCN2CCN(C)CC2)ccc1Br | 0.19 | -0.61

The results go on.
SMILES | KCNQ2 pot | KCNQ2 pot baseline
CCOC(=O)/C(C#N)=C(\O)c1ccc(NC(=O)c2ccc([N+](=O)[O-])cc2)cc1 | 0.54 | 1.5
Cc1cccc(NS(=O)(=O)c2cccc(C(=O)NCCCN3CCCC3=O)c2)c1 | 0.19 | 0.1
CC1=C(C)CC(C(=O)c2ccc(C)cc2)C(C(=O)O)C1 (stereo unspecified) | 1.5 | -0.89
CC1=C(C(=O)Nc2ccccn2)C(c2ccc(N(C)C)cc2)n2ncnc2N1 (stereo unspecified) | 1.3 | -0.4
CCn1cc[n+](C)c1P(c1ccccc1)c1ccccc1 | 0.92 | -1.5
COC(=O)c1ccc(-c2nc3cc(N)ccc3o2)cc1 | 0.54 | -1.9
CSc1nc2ccccc2c(=O)n1N | 1.1 | -1.6
Cc1cc(=O)oc2c(C)c(OCC(=O)NCCN3CCOCC3)ccc12 | 0.29 | -0.01
Cc1onc(C(=O)N2CCC(C(N)=O)CC2)c1-c1ccccc1Cl | 2 | -1.3
COC(=O)c1sc(-c2ccc(Cl)cc2)cc1NC(=O)COCC(=O)O | 2.3 | 1.1
OC1CCCN(Cc2ccccc2)C1 (stereo unspecified) | 0.53 | 0.52
CNNC(=S)Nc1ccc(Cl)cc1 | 0.82 | -1.3
CC1CCCCC1NC(=O)C1CCN(C(=O)NC2CCCCC2)CC1 (stereo unspecified) | 0.89 | -1.7
Cc1[nH]c(=O)[nH]c(=O)c1CSCC(=O)OCC(=O)c1ccc(Br)cc1 | 0.2 | 0.66
COc1ccc(C(C(=O)NCC2CCCO2)N(C(=O)CNC(=O)c2cccs2)c2ccc(C(C)=O)cc2)cc1OC (stereo unspecified) | 0.06 | -0.24
c1ccc(-c2csc3ncnc(NCCCN4CCOCC4)c23)cc1 | 1.5 | 1.1
Cc1cc(C)nc(SCC(=O)N/N=C\c2sccc2C)n1 | 0.05 | 0.09
Cc1cc(C)cc(Oc2ccc(-c3nnc(-c4ccccc4)o3)cc2[N+](=O)[O-])c1 | 0.55 | 1.4
CCCCN(C)S(=O)(=O)c1cc(Br)cc2c1N(C(=O)C1CC1)CC2 | 0.27 | 0.07
NC(=S)Nc1cccc2cn[nH]c12 | 0.14 | -0.41
COCCCNC(=S)NC1CCCCC1 | 0.18 | 3.3
CC(=O)c1cccc(CN2CCN(CCc3ccccc3)C(CCO)C2)c1 (stereo unspecified) | 0.29 | -0.95
CN(C)CCSc1nc(-c2ccccc2)nc2c1COC(C)(C)C2 | 1.4 | -0.95
CCCC(NC(=O)CCc1c(C)c2cc3c4c(oc3c(C)c2oc1=O)CCCC4)C(=O)O (stereo unspecified) | 1.6 | -0.31
CCCCc1cn(C[C@H]2CC[C@@H]([C@@H]3CC[C@H](Cn4cc(CCCC)nn4)O3)O2)nn1 | 0.66 | -0.25
Cc1ccc(SCC(=O)OCC(=O)NC2CCCCCC2)cc1 | 1.8 | -0.08
CCN(CC(=O)Nc1ccc(OC)cc1)C(=O)CCc1nc2ccccc2c(=O)[nH]1 | 0.5 | -0.25
O=C1CC(c2ccc(F)cc2)Sc2nc(-c3ccccc3)c(-c3ccccc3)n21 (stereo unspecified) | 0.16 | 2.4
COc1ccccc1N1CCN(S(=O)(=O)c2c(C)sc3ncn(CC(=O)NCCN(C)C)c(=O)c23)CC1 | 0.63 | 1.2
Cc1ccccc1-c1nc2sc3c(c2c(=O)o1)CCC3 | 0.84 | -0.67

By substructure, the entries above containing a CF3 group.
SMILES | KCNQ2 pot | KCNQ2 pot baseline
COCCOc1ccc(C(F)(F)F)cc1NC(=O)COC(=O)c1cc([N+](=O)[O-])ccc1N1CCOCC1 | 0.14 | 0.81
Cc1ccc(C)c(N2CCN(C(=O)CCC(=O)Nc3nnc(C(F)(F)F)s3)CC2)c1 | 1.5 | -0.19

(further entries)
SMILES | KCNQ2 pot | KCNQ2 pot baseline
Cc1ccc(-c2nc(CCN3C(=O)c4ccccc4C3=O)cs2)cc1 | 0.11 | -0.07
O=C(COC(=O)Cc1cccc(C(F)(F)F)c1)NCC1CCCO1 (stereo unspecified) | 1.3 | -0.25
CCSC(=O)NC1CCCCC1 | 0.52 | -0.34
CCOc1ccc(NC(=O)Cn2nc(-c3ccccc3Cl)n(CC)c2=S)cc1 | 0.16 | 0.02
CCc1ccc(CNC(=O)c2ccc3nc(C4CCCCC4)oc3c2)nc1 | 17* | 1.3*
Clc1ccc2nc(N3CCCCC3)[nH]c2c1 | 0.01 | -0.17
COC(=O)[C@]1(CC(C)C)N[C@H](c2ccc(-c3ccc(F)cc3)cc2)[C@@H]2C(=O)N(C)C(=O)[C@@H]21 | 0.2 | -0.5
Cc1cccc(OCC(=O)Nc2nccs2)c1C | 0.04 | 0.64
Cc1nc(C(N)=O)nc2ccccc12 | 0.08 | 2.7
CC1(C)Cc2c(c(N3CCCCC3)[nH]c(=S)c2C#N)CS1 | 0.2 | -0.09
O=S(=O)(c1ccccc1)N1CCN(C2CCN(Cc3ccccc3)CC2)CC1 | 0.46 | -0.76
Cc1c(C(=O)N2CCCCC2)c(S(=O)(=O)NCc2ccc(N(C)C)cc2)c(C)n1C | 0.94 | -1.1
CNC(=O)NC(=O)C(OC(=O)CCNS(=O)(=O)c1ccccc1)c1ccccc1 (stereo unspecified) | 0.03 | 1.2
C=CCOc1ccccc1CNn1nnnc1N | 0.06 | 0.9
CN(C)c1ccc(-c2n[nH]c(=S)n2-c2ccccc2)cc1 | 0.82 | 0.43
Cc1ccc(OCCn2c(=O)oc3ccc(C)cc32)cc1 | 0.64 | 0.89
CCCCCN(C(=O)NC(=O)Nc1ccccc1C)S(=O)(=O)c1ccccc1 | 0.15 | -1.1
CCOC(=O)c1sc(NC(=O)c2ccc(C)s2)cc1C | 0.01 | 2.4
COc1ccc(CC(NC(C)=O)C(=O)NC2CCN(C(=O)Nc3ccccc3C)CC2)cc1OC (stereo unspecified) | 1 | -0.38
NC(=O)CSc1n[nH]c(-c2ccco2)n1 | 1 | 1.4
O=C(CC1C(=O)NC2CCCCC2N1C(=O)c1ccc(F)cc1)Nc1ccccc1 (stereo unspecified) | 1.8 | -0.48

Whole records as entered above. Order of values: KCNQ2 pot	KCNQ2 pot baseline
Cc1cc(NC(=O)Nc2cccc(Cl)c2)n(-c2ccccc2)n1 is listed with 1.1	0.04
Cc1cc(NC(=O)CSc2n[nH]c(=O)[nH]c2=O)ccc1Br is listed with 0.03	-0.05
